Screens: PubChem BioAssay, several laboratories
E coli growth: E. coli growth inhibition; 330,000 tested, 0.21% active; OD600 absorbance (no concentration beside the values); AID 1053175; Escherichia coli growth, OD600, 23 h; active compounds read low;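 active means OD600 absorbance below the run mean of sample wells minus 3.6 SD, in any replicate, cut at about 0.56 in these data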;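 further: stock transfer was 300 nL into about 60 µL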
FGF22 binding: FGF22 (human) thermal shift binding; 340,000 tested, 1.5% active; recombinant FGF22 thermal shift, SYPRO orange fluorescence; percent of sucrose octasulfate shift, DMSO zero; calls only at 9.99 µM; Q9HCT0;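 active means melting point raised past a set limit in the mean and every replicate; three in four hits are not shown here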
Target sequence (Q9HCT0 whole entry, looked up): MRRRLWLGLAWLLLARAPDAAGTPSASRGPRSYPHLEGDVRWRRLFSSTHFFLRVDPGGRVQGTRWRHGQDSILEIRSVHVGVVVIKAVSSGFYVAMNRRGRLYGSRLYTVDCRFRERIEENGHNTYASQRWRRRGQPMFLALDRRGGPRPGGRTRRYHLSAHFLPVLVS
Ecoli rRNA inh: selective bacterial rRNA inhibition in E. coli; E. coli WT GFP vs humanized-ribosome RFP mutants, fluorescence, 24 h; active compounds read low; DMSO median 0, no signal -100; GFP signal change (wild-type ribosome), % (concentration not given with the values); 350,000 tested, 1.6% active;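 active means significant combined selectivity score with lowered wild-type GFP, culture density cut under 30%, mutant RFP and density less affected; inactive means any of these conditions unmet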; further: one replicate is shown; some compounds called inactive have numbers as strong as hits
Beta2AR agonist: agonists of human beta-2 adrenergic receptor inducing internalization. P07550. Am2.2-beta2AR cells, FAP receptor internalization, flow cytometry; reference of the scale not given here. response, % (test concentration not listed). 340,000 tested, 0.43% active. AID 504454;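 active means response above a set limit, near 3 SD of response in nonfluorescent compounds, cut at about 42% in these data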;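 further: stock transfer was 100 nL into about 11 µL; a reference agonist was the positive control; negative values mostly stem from fluorescent compounds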
Target sequence (P07550 whole entry, looked up): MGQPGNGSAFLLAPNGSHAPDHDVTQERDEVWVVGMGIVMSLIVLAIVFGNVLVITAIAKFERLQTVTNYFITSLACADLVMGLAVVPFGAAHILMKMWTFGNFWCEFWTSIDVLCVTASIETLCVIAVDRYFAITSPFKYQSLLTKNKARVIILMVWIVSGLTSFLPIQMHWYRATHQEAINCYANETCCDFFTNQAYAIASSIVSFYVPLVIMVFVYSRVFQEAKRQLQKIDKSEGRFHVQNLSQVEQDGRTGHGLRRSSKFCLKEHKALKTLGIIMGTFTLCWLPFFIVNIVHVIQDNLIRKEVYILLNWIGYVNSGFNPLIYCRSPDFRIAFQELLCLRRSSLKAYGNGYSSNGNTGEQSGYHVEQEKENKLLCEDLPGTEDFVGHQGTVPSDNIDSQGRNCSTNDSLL
UCH37 inh: blocks the human deubiquitinase UCH37; Q9Y5K5; purified proteasome/UCH37, Ub-AMC cleavage fluorescence; inhibition, % (concentration not given with the values); 330,000 tested, 0.33% active; AID 588478;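 active means mean of two replicates above 20%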;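 further: 0% = compound-free wells with enzyme and 100% = wells lacking proteasome; stock transfer was 100 nL into about 20 µL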
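Test system – human UCH37 enzyme supplied as purified proteasome complex · Incubation – 30 min preincubation with enzyme, 25 min cleavage at room temperature · Detection – AMC fluorescence from Ub-AMC cleavage, excitation 355 nm, emission 460 nm · Benchmarks – no-proteasome wells (full inhibition) and compound-free wells (no inhibition)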
HNF4A DNA FP: change in binding of human HNF4 alpha to DNA. activity change, % at 10 µM. AID 1224865. P41235. 360,000 tested, 0.3% active. HNF4a-FITC DNA binding, fluorescence polarization, 1 h; in the data active means activity change above about 30%, passing the limit was not always enough;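 further: controls were the assay level and a saturating level of protein; the project sought stronger binding though the title names inhibitors; some compounds called inactive have numbers as strong as hits; positive values seem to mean higher polarization but the record does not say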
Target sequence (P41235 whole entry, looked up): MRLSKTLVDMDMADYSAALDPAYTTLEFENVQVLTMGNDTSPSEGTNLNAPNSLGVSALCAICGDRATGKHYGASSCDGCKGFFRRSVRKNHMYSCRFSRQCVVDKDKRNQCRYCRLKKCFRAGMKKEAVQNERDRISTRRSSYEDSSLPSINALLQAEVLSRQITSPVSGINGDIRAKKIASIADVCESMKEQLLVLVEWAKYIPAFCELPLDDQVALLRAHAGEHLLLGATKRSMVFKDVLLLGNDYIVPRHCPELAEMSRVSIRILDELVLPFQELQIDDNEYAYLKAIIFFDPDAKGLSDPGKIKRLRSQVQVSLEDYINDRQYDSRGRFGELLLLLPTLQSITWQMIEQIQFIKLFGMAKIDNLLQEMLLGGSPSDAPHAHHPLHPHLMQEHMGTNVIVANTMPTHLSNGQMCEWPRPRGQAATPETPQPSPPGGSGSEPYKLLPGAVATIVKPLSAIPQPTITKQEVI
ALR H2O2 inh: blocks human ALR sulfhydryl oxidase activity; purified ALR, DTT oxidation, H2O2 HRP-luminol luminescence; inhibition, % (concentration not given with the values); P55789; 290,000 tested, 3.8% active;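 active means mean and each replicate at 75% or more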;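 further: stock transfer was 7.5 nL into about 7.5 µL; 0% = neutral wells and 100% = wells with inactivated enzyme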
Ecoli rRNA inh OD600: further read-out of Ecoli rRNA inh, marked with its call; OD600 change, %; measured here: OD600 growth;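 optical density of the mix in the first replicate; 0 = DMSO median and -100 = no signal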
Ecoli rRNA inh RFP: also measured in Ecoli rRNA inh; calls as there; RFP signal change, %; measured here: RFP humanized mutant strains;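 first replicate; 0 = DMSO median and -100 = no signal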
An asterisk follows results filed as active; i = inactive; . = no result given; + = active, no number; & = joins results of further samples. These rows are one share of the data. The share of hits here may be higher or lower than overall.

Below each SMILES: E coli growth	Beta2AR agonist	FGF22 binding	UCH37 inh	Ecoli rRNA inh	Ecoli rRNA inh RFP	ALR H2O2 inh	HNF4A DNA FP	Ecoli rRNA inh OD600
- CCOC(=O)c1c(NC(=S)N2CCCCC2)sc2c1CCN(C(=O)OCC)C2
    .	18	i	.	-8	21	.	1.3	4
- C=CC[C@H](CC(=O)NCCO)C(=O)NC[C@@H](OC(=O)[C@H](CC=C)CC(=O)OC(C)(C)C)c1ccccc1
    .	-5	i	3.4	3	-0.2	-6	1.1	8
- Cc1ccc(-n2nnnc2SCC(=O)Nc2ccccc2N2CCCCC2)cc1C
    0.81	3	.	-1.7	.	.	-10	-2.6	.
- COc1ccc(CCn2c(NCCCN3CCOCC3)nc3c2c(=O)[nH]c(=O)n3C)cc1
    0.73	3	.	0.5	.	.	5	-1.6	.
- Cc1cc(C)cc(N=c2c([N+](=O)[O-])nn(-c3cccc(Cl)c3)n2O)c1
    0.69	4	.	4.2	.	.	-16	-0.4	.
- COC(=O)C(CC(=O)c1ccc(Cl)cc1)c1ccccc1 (stereo unspecified)
    0.72	7	i	3.6	-1	-20	.	-4.9	-32
- CC1(C(=O)O)CCC(C(=O)Nc2cccc(F)c2)C1(C)C (stereo unspecified)
    0.64	11	i	1.6	-1	1.5	-26	1.9	8
- Cc1sc(C(C2C(=O)CC(C)(C)CC2=O)C2C(=O)CC(C)(C)CC2=O)cc1[N+](=O)[O-]
    0.72	19	i	8.7	13	3.3	56	-3.6	11
- COC(=O)c1cc(NC(=O)CC2NCCNC2=O)cc(C(=O)OC)c1 (stereo unspecified)
    0.65	6	.	-0.2	.	.	3	0.2	.
- CCOc1ccc2c(c1)[nH]c(=S)n2C
    0.68	4	i	4.9	1	-1.0	64	0.0	7
- Cn1c(=O)c2c(ncn2Cc2ccc(Cl)c(Cl)c2)n(C)c1=O
    0.67	-3	.	2.3	.	.	-13	1.4	.
- CC(=O)Nc1ccc(S(=O)(=O)NCCCCNS(=O)(=O)c2ccc(NC(C)=O)cc2)cc1
    0.69	-11	i	-2.8	5	-0.3	-7	4.3	13
- C#CCN(C[C@@H]1[C@@H](OC(=O)Nc2cccs2)[C@@H](OC(=O)Nc2cccs2)Cn2c(=O)n(CCCCCC)c(=O)n21)S(=O)(=O)c1ccc(C)cc1
    .	.	i	.	6	5.8	.	4.7	-4
- O=C(O)c1cc(NS(=O)(=O)c2ccc(NCc3ccccc3)c([N+](=O)[O-])c2)cc(C(=O)O)c1
    0.72	-3	i	8.5	7	-1.0	-9	-1.1	7
- CCOC(=O)CNC(=O)CSc1nnc(NC(=O)c2ccc(C)cc2)s1
    0.74	3	i	-7.3	24	-0.9	-3	0.6	10
- C/C(=N/NC(=O)c1ccc2c(c1)OCCO2)c1ccc([N+](=O)[O-])cc1
    .	-2	i	.	6	0.8	.	-1.5	9
- COc1ccc(N2CCN(CC(=O)Nc3cccc(S(=O)(=O)N4CCOCC4)c3)CC2)cc1
    0.66	1	i	3.3	-3	-9.4	78*	-2.0	3
- CC(C)(C)c1ccccc1OCCOCCN1CCCCCC1
    0.63	27	i	0.2	-18	0.9	0	-1.3	-18
- CCSc1ncc(CO)c(N)n1
    0.64	-5	i	0.1	13	0.6	1	-1.0	16
- C=CCC1=C/C(=C\c2c(N)n3nc(CC(=O)N4CCOCC4)sc3nc2=O)C=C(OC)C1=O
    .	-106	i	.	-1	1.2	54	37	14
- Cn1c(=O)c2[nH]c(SCCN)nc2n(C)c1=S
    .	1	i	.	0	-0.9	.	-2.3	-2
- CCOC(=O)c1sc(NC(=O)COC(=O)CNC(=O)c2ccco2)c(C(=O)OCC)c1C
    0.72	-2	i	0.1	-1	0.3	7	-0.7	2
- O=C(CSc1ncnc2sc3c(c12)CCC3)Nc1ccccc1C(=O)O
    0.65	-3	i	5.2	-3	-14	-2	-2.3	-3
- C/C(=N\OC(=O)Nc1ccc(Cl)cc1)c1ccc(F)c(F)c1
    .	-7	i	.	-67	-19	56	-0.2	-83
- NC(Cc1ccc(OC(F)F)cc1)C(=O)O (stereo unspecified)
    0.71	9	i	4.9	4	-2.6	-3	2.5	-1
- O=C(CN1CCN(Cc2ccccc2)CC1)NNC(=O)c1ccccc1
    0.69	0	i	1.9	10	-1.5	.	3.3	11
- C=CCNC(=O)c1cc(=O)c2ccccc2o1
    0.65	11	.	2.0	.	.	-1	2.6	.
- O=C(O)C1C2C=CC(O2)C1C(=O)NCc1ccccc1Br (stereo unspecified)
    0.73	17	.	1.5	.	.	-1	0.3	.
- O=C(CNc1cccc(S(=O)(=O)N2CCCC2)c1)Nc1cccc(C(F)(F)F)c1
    0.71	-4	i	3.8	-59	-24	-9	-4.8	-78
- Cc1cccc(NC(=O)c2ccc([N+](=O)[O-])o2)c1C
    0.7	10	i	6.8	-5	-2.6	-18	0.0	5
- CCOC(=O)CC1=C(C(=O)OCC)C(c2cc(OC)c(OC)cc2OC)C(C#N)=C(N)O1 (stereo unspecified)
    0.71	-1	.	3.9	.	.	-13	-4.3	.
- CC(C)(C)[C@H]1COC(=O)[C@H](Cc2ccc(F)cc2)CC/C=C/C[C@@H](CC(=O)N[C@H](CO)Cc2ccccc2)C(=O)N1
    .	-6	i	4.2	16	0.4	1	1.6	11
- Cc1ccc(NC(=O)CS(=O)CC(=O)NC23CC4CC(CC(C4)C2)C3)cc1 (stereo unspecified)
    0.65	-1	i	4.3	-28	23	-4	6.1	-58
- Cc1ccc(NC(=O)CCn2cccc2)cc1
    0.71	-1	.	3.3	.	.	12	5.9	.
- CC1(c2cccc(Br)c2)NC(=O)N(CC(=O)c2ccc3c(c2)OCO3)C1=O (stereo unspecified)
    .	.	i	.	8	1.0	.	2.2	-16
- O=C(NC(=S)NCCc1ccccc1)c1ccccc1F
    0.72	5	i	0.1	-31*	-9.0*	-4	-3.0	-25*
- CCOC(=O)c1cc(-c2ccccc2)sc1NC(=O)CN1C(=O)NC(CC)(c2ccc(F)cc2)C1=O (stereo unspecified)
    0.74	4	.	-5.5	.	.	-5	-3.0	.
- CC(C)Oc1ncnc2c1[nH]c1ccccc12
    0.63	1	i	-52	-9	-3.9	-8	0.5	-2
- Cc1ccc(C)c(SCC(=O)OCC(=O)c2ccco2)c1
    0.67	0	.	1.4	-7	0.7	0	-14	-8
- c1nnc(NC2=NCCCCC2)s1
    0.63	-3	.	2.1	.	.	-9	-4.4	.

Shown comma-delimited: part of the list above
SMILES,E coli growth,Beta2AR agonist,FGF22 binding,UCH37 inh,Ecoli rRNA inh,Ecoli rRNA inh RFP,ALR H2O2 inh,HNF4A DNA FP,Ecoli rRNA inh OD600
CC(C)(C)[C@H]1COC(=O)[C@H](Cc2ccc(F)cc2)CC/C=C/C[C@@H](CC(=O)N[C@H](CO)Cc2ccccc2)C(=O)N1,.,-6,i,4.2,16,0.4,1,1.6,11
Cc1ccc(NC(=O)CS(=O)CC(=O)NC23CC4CC(CC(C4)C2)C3)cc1 (stereo unspecified),0.65,-1,i,4.3,-28,23,-4,6.1,-58
Cc1ccc(NC(=O)CCn2cccc2)cc1,0.71,-1,.,3.3,.,.,12,5.9,.

Later entries
Below each SMILES: E coli growth	Beta2AR agonist	FGF22 binding	UCH37 inh	Ecoli rRNA inh	Ecoli rRNA inh RFP	ALR H2O2 inh	HNF4A DNA FP	Ecoli rRNA inh OD600
- OC1c2c(F)cccc2N=C2CCCCN21 (stereo unspecified)
    .	.	i	.	3	-2.8	.	2.2	15
- CNC(=S)Nc1ccc(N2CCN(c3ccc(C(F)(F)F)cn3)CC2)nc1
    .	0	i	.	-18	-3.2	4	-1.3	-14
- CCOC(=O)c1ccccc1NC(=O)Cn1c(=O)n(Cc2ccccc2)c(=O)c2c(C)c(C)sc21
    0.73	-5	.	-2.8	.	.	-3	4.1	.
- CCOc1ccc(C(N)=O)cc1OC
    0.78	8	.	5.5	.	.	-2	0.3	.
- Cc1cc2occ(CC(=O)OCC(=O)Nc3sc4c(c3C#N)CCC(C)C4)c2cc1C (stereo unspecified)
    0.7	-7	i	6.3	.	.	0	4.2	.
- CCOc1ccc(NS(=O)(=O)c2ccc(C(=O)NC3CCN(Cc4ccccc4)CC3)cc2)cc1
    0.71	4	i	3.1	6	9.0	3	-1.0	-12
- Cc1ccc(CN(Cc2ccco2)C(=O)c2ccco2)cc1
    .	8	i	.	-25	-4.8	9	3.9	-33
- N#CC(Sc1ccccn1)c1ccc(Cl)cc1Cl (stereo unspecified)
    0.7	-4	i	0.5	-21*	-1.1*	12	0.8	1.6*
- COc1ccccc1CN1CCN(Cc2cc(OC)c(OC)cc2OC)CC1
    0.68	8	i	3.3	4	0.3	-5	3.4	2
- CCn1c(SCC(=O)Nc2cc(C)on2)nc2c(c1=O)SC(C)C2 (stereo unspecified)
    0.59	-11	.	5.6	.	.	-35	1.2	.
- O=C(CNC(=O)c1ccco1)NCc1ccc2c(c1)OCO2
    0.72	-5	i	-2.7	9	-0.1	-8	0.2	10
- CCc1nn2c(N)c(/C=C3\C=Nc4ccccc43)c(=O)nc2s1
    0.72&0.67	12&6	i	3.0&0.8	4	4.3	-1&-21	0.6&-1.4	-2
- COc1ccc(-c2c(-c3ccc(O)cc3O)n[nH]c2C)cc1OC
    0.72	-2	.	0.4	.	.	88*	1.5	.
- Cc1ccc(-c2noc(C3CCCN(C(=O)c4cccc(Cl)c4)C3)n2)o1 (stereo unspecified)
    0.66	1	i	1.7	-4	2.1	0	2.7	-21
- CC1CCN(c2c(NCC3CCC(C(=O)NCCc4ccc(Cl)cc4)CC3)c(=O)c2=O)CC1 (stereo unspecified)
    0.64	10	i	3.1	-1	-5.6	-9	0.5	-6
- COc1ccc(Nc2nccc3c2nnn3C)cc1
    0.68	-11	.	3.4	.	.	-31	1.0	.
- C[C@@H]1CN([C@@H](C)CO)C(=O)CCCn2nncc2CO[C@H]1CN(C)C(=O)Nc1ccnc(N2CCOCC2)c1
    .	.	i	.	5&2	-2.1&1.1	.	2.5	9&4
- Cc1ccc(NC(=S)N(Cc2ccco2)C(C)c2cccs2)c(Cl)c1 (stereo unspecified)
    0.79	9	i	2.3	5	-1.6	-10	4.8	4
- Cc1oc(-c2ccc(Cl)cc2)nc1CS(=O)CC(=O)NC1CCCC1 (stereo unspecified)
    0.64	-6	i	3.4	-2	-1.5	99*	2.3	-1
- O=C(CN1CCN(S(=O)(=O)c2ccc3c(c2)OCCO3)CC1)Nc1ccccc1Br
    .	1	i	.	13	0.6	.	2.3	9
- O=C(COC(=O)CNC(=O)C1CCCCC1)Nc1cc(C(F)(F)F)ccc1Cl
    0.68	5	i	-0.9	-1	-0.9	2	1.3	-2
- O=C(OCc1cn([C@H]2CN(Cc3cccs3)[C@@H](c3ccc(Cl)cc3)C[C@@H]2O)nn1)c1ccccc1
    .	.	i	.	14	0.7	.	0.9	1
- Cc1cc(OC(C)C(=O)NCc2cccnc2)c2c(C)cc(=O)oc2c1 (stereo unspecified)
    0.65	9	i	-117	8	3.4	-14	0.9	12
- O=C(NC1CC1)c1cccc(NC(=O)c2cnn(-c3ccccc3)n2)c1
    0.66	15	+	4.3	-4	-1.0	6	4.2	-5
- OCc1ccnc2oc3ccccc3c12
    0.69	-8	i	5.0	-3	2.0	3	0.1	-7
- CNC(=O)c1cc2c(-c3ccccc3)nn(C)c2s1
    0.68	-16	i	-87	-3	1.0	-13	-1.0	-7
- Cc1ccc(NCc2nnc(SCC(N)=O)o2)c(C)c1
    0.69	-4	i	-1.5	14	-0.5	39	-2.5	9
- Cc1cccc(-c2ccc3ncnc(NCc4cccnc4)c3c2)c1
    0.74	9	i	-2.5	-5	11	-6	4.8	-5
